# Ab BasE inh – BasE siderophore enzyme inhibitors, primary screen, biochemical, Acinetobacter baumannii ATCC 17978, fluorescence polarization. purified BasE, fluorescence polarization binding displacement. inhibition, % (no concentration beside the values). actives 0.1% (n = 84,000). AID 485350, 2010;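 active = both replicates above 25% with normal brightness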;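 also: 0% = negative plate control signal and 100% = positive plate control signal; stock transfer was 100 nL into about 30 µL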
# LANA-nucl inh – inhibitors of KSHV LANA-nucleosome binding, primary screen, biochemical, fluorescence polarization, FITC-LANA1-23, chicken nucleosomes; FITC-LANA1-23 / chicken nucleosome fluorescence polarization; stronger effect = lower value; z-score (no concentration beside the values); actives 0.3% (n = 51,000); AID 720717, 2013;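 active = both repeat wells score below -2 in polarization z-score versus plate sample wells, excluding overly bright wells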;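 also: 100 nL library stock added to about 30 µL; numbers are from one replicate; some results filed as inactive read as strong as hits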
#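 System – purified chicken nucleosomes with FITC-labelled LANA N-terminal peptide (1-23) · Amount – 240 nM purified chicken nucleosomes (480 nM peptide binding sites), final · Also added – 50 nM FITC-LANA1-23 probe · Medium – TEN-BT buffer, pH 7.5 · Incubation – compound with peptide–nucleosome mix 10–45 min at room temperature · Detection – fluorescence polarization, ex 480 nm, em 535 nm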
# Active calls of the source: *; . = not tested or not shown; & = joins results of further samples. An excerpt (hit frequency here may not be typical).
# The opening 2 records as a preview:
SMILES,Ab BasE inh,LANA-nucl inh
COc1ccc(CN2C(=O)c3ccccc3C2=O)cc1C(=O)OCc1nnc(-c2ccccc2)o1,-0.5,.
O=C(O)Cc1nc(-c2ccncc2)n[nH]1,1.1,-0.393

# This part in full, from the start:
SMILES,Ab BasE inh,LANA-nucl inh
COc1ccc(CN2C(=O)c3ccccc3C2=O)cc1C(=O)OCc1nnc(-c2ccccc2)o1,-0.5,.
O=C(O)Cc1nc(-c2ccncc2)n[nH]1,1.1,-0.393
CCN(C(=O)COc1ccc(Cl)cc1)C1CCCCC1,-4.2,-0.968
Cc1n[nH]c(=S)n(/N=C/C=C/c2ccccc2)c1=O,-1.1,.
C/C(=N\N=C(N)N)c1ccc(Cl)cc1,-1.6,.
NC(=O)COc1ccc(C=C2C(=O)c3ccccc3C2=O)cc1,-0.3,.
CCCn1c2ccccc2c2cnn(CC(=O)NC3CCN(Cc4ccccc4)CC3)c(=O)c21,-5.3,1.28
O=C(O)CC(C(=O)O)c1cn(Cc2ccccc2)c2ccccc12 (stereo not given),3.1,0.479
Cc1nn(CCO)c(N)c1C1(O)C(=O)N(C)c2ccccc21 (stereo not given),-2.1,.
O=C(Nc1ccccc1)Nc1ccc(F)cc1,1.9,0.347
Cc1ccc(Sc2c(N)n(C)c(=O)[nH]c2=O)cc1,-1.2,.
CCOc1ccc(N(C)Cc2cc(=O)oc3ccc(OCC)cc23)cc1,0.6,0.476
Cc1ncc([N+](=O)[O-])n1CCO,1.0&0.8,-0.136&0.421&-0.285&2.07&-1.04
Cc1noc2ncnc(N(C)CCO)c12,1.5,.
CCCOc1ccc(NC(=O)CC2C(=O)N(CC)C(=S)N2CCNC(C)=O)cc1 (stereo not given),-0.2,-0.386
O=C(c1ccc2cn[nH]c2c1)N1CCCC1,-1.6,-0.208
O=C(c1ccc2nc(/C=C(\O)c3ccc(Cl)cc3)c(=O)[nH]c2c1)N1CCOCC1,11.9,.
Nc1nc2ccccc2[nH]1,-0.1,.
N#C/C(=C\c1cn(CCC(N)=O)c2ccccc12)Sc1nc2ccccc2s1,1.4,0.154
COc1ccc(C(C)N)cc1Br (stereo not given),2.8,.
COc1ccc(S(=O)(=O)NCCSCc2cccs2)cc1,2.4,-0.188
CC1Oc2ccccc2N(CC(=O)Nc2ccccc2F)C1=O (stereo not given),-5.6,1.56
CCN(C(=O)c1c(-c2c(Cl)cccc2Cl)noc1C)c1ccccc1C,20.2,-0.509
O=C(Nc1ccc(Cl)cc1)N1CCC(C(c2ccccc2)c2ccccc2)CC1,2.1,.
O=C(Nc1sc2c(c1Sc1nnnn1-c1ccccc1)CCCC2)c1ccccc1,-2.4,.
# Continuation.
SMILES,Ab BasE inh,LANA-nucl inh
COc1cccc(C(=O)OC(C)C(=O)Nc2ccc(N(C)C)cc2)c1 (stereo not given),0.3,.
O=C(O)CSc1nc2ccccc2o1,3.7,.
CC(OC(=O)c1cccc(N(C)C)c1)C(=O)N1CCc2ccccc21 (stereo not given),-3.1,.
Oc1ccccc1-c1cc(-c2ccccc2)n[nH]1,-0.1,-0.784
O=C(c1cn[nH]c1C1CCNCC1)N1CCC(c2ccccc2)C1 (stereo not given),-1.6,.
COc1ccc(N2CCN(c3ccc(NC(=O)C4CCCCC4)cc3C#N)CC2)cc1,-3.2,-0.167
COc1ccc(S(=O)(=O)Nc2ccccc2C(=O)NC(C)C)cc1OC,2.9,.
CC(C)(C)C(=O)/C(C#N)=C/c1ccc2c(c1)OCCO2,-0.4,.
O=C(c1ccc2c(c1)N(Cc1ccccc1)C(=O)c1ccccc1S2=O)N1CCCC1 (stereo not given),-0.8,-0.447
O=C(Nc1ccc2c(c1)OCO2)NN1CCOCC1,12.2,0.571
Nc1cc[n+](CC(O)CO)cc1 (stereo not given),-90.3,-3.07*
Cc1cnc(NC(=O)c2c(C)noc2C)s1,-1.4,.
C/C(=N\NC(=S)NCC1CCCO1)c1ccc(OCC(=O)N(C)C)cc1 (stereo not given),0.1,.
O=C(O)CSC(=S)c1ccccc1,1.5,.
O=C(O)Cn1cc(Br)c(=O)[nH]c1=O,-0.4,.
COC(=O)c1c(C)oc(C)c1S(=O)(=O)NC1CCCCCCCCCCC1,1.2,.
CCCNC(=O)CC(c1cccs1)N1Cc2ccccc2C1=O (stereo not given),-0.9,-0.778
c1csc(CNC2CCCC2)c1,-0.6,-0.283
CC(OC(=O)c1ccccc1NS(C)(=O)=O)c1nnc(-c2cccs2)o1 (stereo not given),0.8,.
CCc1cc2ccccc2nc1Cl,-0.2,1.03
Cc1nc2ccccn2c1-c1ccnn1C(=O)c1ccc(C(F)(F)F)cc1,2.0,.
O=S(=O)(c1ccc(Cl)cc1)N1CCC2(CC1)OCCO2,0.1,.
COC(=O)c1cc2c(C)nn(Cc3ccccc3Cl)c2s1,1.1,.
Cc1cccc(NC(=O)CN2NS(=O)(=O)c3ccccc3C2=O)c1,0.2,.
CCC1C(=NO)C(CC)C(c2ccccc2)NC1c1ccccc1 (stereo not given),0.1,.

# Record cards, as listed above. Order of screens: Ab BasE inh | LANA-nucl inh
# Shown for Cc1cnc(NC(=O)c2c(C)noc2C)s1 = -1.4 | .
# Shown for Cc1nc2ccccn2c1-c1ccnn1C(=O)c1ccc(C(F)(F)F)cc1 = 2.0 | .

# Continued.
SMILES,Ab BasE inh,LANA-nucl inh
COC(=O)c1cc(S(=O)(=O)N(C)Cc2ccccc2)c[nH]1,0.3,-1.43
CCN(CC)C(=O)Cn1c(C)c(C#N)c2ccccc21,2.2,0.181
CC(=N/Nc1nnc(C)n1N)/C(C)=N/Nc1nnc(C)n1N,0.9,0.365
COc1ccc(CCNC(=O)CSc2nncn2C)cc1,-0.4,.
C=CCn1c(NC(=O)COc2ccccc2)nc2ccccc21,-1.0,-1.08
Oc1ccc(C(=S)N2CCCCCC2)cc1,8.1,-0.663
Cc1sc2nc(CN3CCN(C(=O)c4ccco4)CC3)n(C(=O)c3ccco3)c(=O)c2c1C,-0.7,0.268
S=C(NCc1ccc2c(c1)OCO2)N(Cc1ccco1)Cc1cccs1,1.9,.
Cc1cc(Br)ccc1NC(=O)C1CC(O)CN1C(=O)OCc1ccccc1 (stereo not given),-1.0,0.508
CCOC(=O)c1ccccc1NC(=O)CC(C)CC(=O)O (stereo not given),0.6,-1
O=S(=O)(c1ccc(NC(=S)N2CCCC2)cc1)N1CCCCC1,3.7,-0.946
Cc1onc(-c2ccccc2Cl)c1C(=O)N(Cc1nc(-c2ccccc2)no1)C(C)C,0.3,0.282
NC(=O)COC(=O)c1cc2c(s1)CCC2,2.8,.
CN(C)c1cc(N)c2ccccc2n1,0.1,-0.863
CCc1ccc(Nc2ncc3c(n2)CC(C)CC3=O)cc1 (stereo not given),1.5,1.14
O=C(NCC12CC3CC(CC(C3)C1)C2)c1ccccc1,-0.2,.
Cc1ccc2oc(-c3ccccc3)cc(=NCCO)c2c1,0.4,.
CC(C)C(C)(C#N)NC(=O)CSc1nncn1C (stereo not given),0.9,.
CCN(CC)c1ccc(/C=N/n2c(C)cc(C)cc2=O)cc1,-0.8,-0.273
CC(=O)Nc1sc2c(c(=O)c1O)CCCC2,-2.2,0.316
Cn1c(SCCN2CCCC2)nnc1C1CCCN1C(=O)NC1CCCCC1 (stereo not given),-1.7,-0.698
CCn1c2ccccc2c2cc(NC(=O)Oc3ccccc3)ccc21,0.8,.
CCN(CC)S(=O)(=O)c1ccc(C(=O)C2=C3SC=C(c4ccc(OC)cc4)N3CC2)cc1,-1.0,.
CC(Oc1cccc2c1CCN(C)C2=O)c1ccccc1 (stereo not given),0.3,-1.22
N#CNC1=NCN(CC2CCCO2)CN1 (stereo not given),2.4,0.9

# Given as tab-separated lines: 4 of the compounds above
structure	Ab BasE inh	LANA-nucl inh
CCN(CC)C(=O)Cn1c(C)c(C#N)c2ccccc21	2.2	0.181
CC(=N/Nc1nnc(C)n1N)/C(C)=N/Nc1nnc(C)n1N	0.9	0.365
COc1ccc(CCNC(=O)CSc2nncn2C)cc1	-0.4	.
C=CCn1c(NC(=O)COc2ccccc2)nc2ccccc21	-1.0	-1.08

# Next part:
SMILES,Ab BasE inh,LANA-nucl inh
CCOC(=O)Cc1nnc(C2CC(=O)N(c3ccccc3)C2)o1 (stereo not given),1.6,0.063
COc1ccc(SCC(=O)N(C2CCCCC2)C2CCS(=O)(=O)C2)cc1 (stereo not given),-1.1,.
NC(=O)Cn1c2[n+](c3ccccc31)CC(O)CS2 (stereo not given),0.5,-2.37*
Cc1ccc(C(C#N)c2ccc(Cl)nn2)cc1 (stereo not given),.,-0.962
CCN(CC)CCNc1nc2c(c(=O)n(C)c(=O)n2C)n1C(C)c1ccccc1 (stereo not given),-1.1,.
COc1ccc(NC(=O)N2CCN(C3CCCCC3)CC2)c(OC)c1,-2.7,-1.02
CC(=O)N1N=C(c2ccco2)CC1c1cc2cccc(C)c2nc1Cl (stereo not given),1.0,-0.407
CC(OC(=O)c1cc(S(=O)(=O)N2CCOCC2)ccc1F)C(N)=O (stereo not given),3.4,.
Cc1ccc(SCC(=O)Nc2cccc3nsnc23)c(C)c1,1.5,.
COc1cc2c(cc1NC(=O)COC(=O)C1CC(=O)N(Cc3ccco3)C1)oc1ccccc12 (stereo not given),0.1,.
CCN(CC)C(=O)c1cccc(NC(=O)c2cc(-c3ccco3)nc3ccccc23)c1,0.9,.
O=C(NCCCn1ccnc1)c1ccccc1NS(=O)(=O)c1ccc(Cl)cc1,-2.3,.
CC(C)(C)c1ccccc1OCC(=O)Nc1cccc2ccccc12,-0.2,.
COc1cc2c(cc1OC)CN(C(=O)c1ccc(Cl)nc1)CC2,-0.9,.
CCCS(=O)(=O)Nc1cc2oc3ccccc3c2cc1OC,-2.2,.
CN1C(C)(C)CCCC1(C)C,-0.3&4.2,-0.0755&0.0745
Cc1ccccc1-n1c(=O)c(C#N)cc2c(=O)n3ccccc3nc21,2.5,-2.16
O=C(OCCCCN1C(=O)c2ccccc2C1=O)c1ccc(-n2cnnn2)cc1,0.3,.
Cc1cc(/C=C(\C#N)C(=O)N2CCn3c2nc2ccccc23)c(C)n1-c1cccc(C(F)(F)F)c1,-1.9,.
O=C(NC1CCCCC1)c1nc(-c2cccc(C(F)(F)F)c2)no1,1.6,-0.136
COc1cc(C(=O)c2cc(Cl)ccc2N)cc(OC)c1OC,-0.5,1.14
CCc1cccc(NC(=O)CCn2c(=O)c3cccn3c3ccccc32)c1,-0.2,-0.353
NC(=O)CC1NC(=O)c2ccccc21 (stereo not given),3.4,0.74
CC(C)CC1C(=O)N2CCC[C@H]2C2(O)O[C@](NC(=O)C3C=C4c5cccc6[nH]c(Br)c(c56)C[C@H]4N(C)C3)(C(C)C)C(=O)N12 (stereo not given in full),20.0,0.772&-0.584
Cc1cc(-n2c(C)cc(C(=O)CSc3nnc(COc4ccccc4Cl)o3)c2C)no1,0.9,.

# Four structures already listed, sorted by number of heavy atoms, highest first.
SMILES,Ab BasE inh,LANA-nucl inh
COc1cc2c(cc1NC(=O)COC(=O)C1CC(=O)N(Cc3ccco3)C1)oc1ccccc12 (stereo not given),0.1,.
CCN(CC)CCNc1nc2c(c(=O)n(C)c(=O)n2C)n1C(C)c1ccccc1 (stereo not given),-1.1,.
O=C(NCCCn1ccnc1)c1ccccc1NS(=O)(=O)c1ccc(Cl)cc1,-2.3,.
Cc1ccccc1-n1c(=O)c(C#N)cc2c(=O)n3ccccc3nc21,2.5,-2.16

# More entries
SMILES,Ab BasE inh,LANA-nucl inh
CSCC[C@@H]1NC(=O)[C@@H]2CCCN2C1=O,-1.5,0.682
NNC(=O)CSCc1nc(-c2ccccc2)cs1,2.3,0.405
c1ccc(Sc2cnc3ccccc3n2)cc1,.,0.069
Cc1cccc2nc(CSc3nnc(CN4CCCC4)n3Cc3ccccc3)cc(=O)n12,1.5,.
CCCN1C(=O)c2cc(C(=O)Nc3ccc(OC)c(OC)c3)ccc2C1Nc1ccc(OC)c(OC)c1 (stereo not given),2.0,-0.123
O=C1CS/C(=N/C(=O)NC2(C(F)(F)F)Oc3ccc(Cl)cc3O2)N1 (stereo not given),24.2,-0.019
NC(=O)C1CCN(C2CC(=O)N(Cc3ccc(F)cc3)C2=O)CC1 (stereo not given),2.0,0.441
CCOC(=O)Cn1c(-c2c(Cl)cccc2Cl)noc1=O,1.6,.
O=C(O)CNC(=O)CSc1ccccn1,2.8,.
O=C(CCCSc1nc2ccccc2s1)Nc1nccs1,-1.8,.
CCN(CC)S(=O)(=O)c1cccc(-c2nnc(SCc3nc4cc(C(=O)O)ccc4c(=O)[nH]3)o2)c1,1.9,.
N#CCCN(C(=O)Cc1noc2ccccc12)c1ccccc1,0.1,-0.0375
CC(C)n1c(O)c(N=NC(=S)NCCN2CCOCC2)c2ccccc21,2.3,.
O=S(=O)(c1ccccc1)n1nc(-c2ccccc2)nc1NCc1cccs1,2.4,0.227
CC(C)N(C(=O)c1ccc(C(=O)N2CCCCC2)cc1)C(C)C,-0.1,-0.134
Cc1ccc(S(=O)(=O)N2c3ccccc3S(=O)c3ccccc32)cc1,-0.3,.
O=C(CSc1ccc(Cl)cc1)N1CCc2c([nH]c3ccccc23)C1C(F)(F)F (stereo not given),1.7,.
COc1ccc(N=Cc2ccc(Br)s2)cc1,0.7,0.818
Cc1ccccc1NC(=O)C(C)Sc1nc2ncccc2[nH]1 (stereo not given),-0.2,-0.342
CCCNC(=O)N1CCN(c2ccc(Cl)c(Cl)c2)CC1,0.8,-0.267

# Screening results as filed in PubChem.
